Screens from PubChem BioAssay.
PABP polyA inh: PABP poly(A) RNA binding inhibitors, primary screen, biochemical, fluorescence polarization, uHTS; inhibition, % at 35 µM; 290,000 compounds, 1% hits;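 active = 50% or more with normal probe brightness, or confirmed in later tests; inconclusive = above 50% with abnormal brightness, or retests that disagree; inactive = below 50% or failed in later tests; about a fifth of its hits are not listed in these tables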;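 also: calls also rest on retests at 20 µM and on dose response follow-up; controls were probe without protein and protein plus probe with vehicle; some compounds called inactive have numbers as strong as hits; many hits fall short of the cut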
Yeast UUG start: modulators of yeast start codon fidelity, primary screen, whole organism, S. cerevisiae, single point, plate reader; 350,000 compounds, 0.13% hits; S. cerevisiae UUG-firefly luciferase reporter, luminescence/redox ratio; AID 602363, 2012; activity score, % at 18.7 µM;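 active = replicate mean at a twofold rise or more, about +100% in these data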;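 also: firefly luciferase made from a UUG start codon reports start codon fidelity; reporter light over untreated wells divided by growth signal over untreated wells; some hits fall short of that in this replicate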
MT1-MMP act inh: blockers of MT1-MMP proenzyme processing, primary screen, HT1080 RFP-PRO-GFP cells, GFP/RFP fluorescence; 360,000 compounds, 0.061% hits; GFP/RFP ratio fluorescence, overnight; percent of plate control window, DMSO zero; GFP/RFP ratio change, % at 20 µM; Matrix metalloproteinase-14 (Homo sapiens), P50281;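 active = GFP/RFP ratio change of at least 30% with cell ATP level not reduced by more than half and red fluorescence within 50% of control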; also: strong numbers were not always called active
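Assay system: HT1080 RFP-PRO-GFP cells. Benchmarks: DMSO vehicle wells and RFP-L50D-GFP reporter cell wells. Times: overnight cell settling, then overnight compound exposure, 37 °C, 5% CO2. Compound: 20 µM single dose, 1% DMSO. Read-out basis: GFP/RFP fluorescence ratio.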
eIF4H inh: human eIF4H binding inhibitors, primary screen, translation initiation inhibitor project, biochemical, uHTS, fluorescence polarization; Eukaryotic translation initiation factor 4H (Homo sapiens), Q15056; inhibition, % at 35 µM; 290,000 compounds, 0.94% hits; eIF4H fluorescence polarization binding assay;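 active = 50% or more with normal probe brightness, or confirmed in later tests; inconclusive = above 50% with abnormal brightness, or retests that disagree; inactive = below 50% or failed in later tests; about a fifth of its hits are not listed in these tables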;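 also: calls also rest on retests at 20 µM and on dose response follow-up; 0% = protein and probe with vehicle and 100% = probe without protein; strong numbers were not always called active; many hits fall short of the cut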
Rce1 inh: yeast Rce1p protease inhibitors, primary screen, biochemical, fluorescence, cell-free homogeneous. CAAX prenyl protease 2 (Saccharomyces cerevisiae (strain ATCC 204508 / S288c)), Q03530. yeast membranes, quenched prenylated peptide cleavage fluorescence. calls only. 290,000 compounds, 0.27% hits;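 active = fall in fluorescence gain of 50% or more versus controls, with final raw signal at or below 3038400; inconclusive = same 50% fall but final raw signal above 3038400; inactive = fall in fluorescence gain under 50%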;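 also: plate controls were neutral control wells for no effect and wells lacking membranes for full effect; tested at 10 µM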
Target sequence (Q03530 whole entry, looked up): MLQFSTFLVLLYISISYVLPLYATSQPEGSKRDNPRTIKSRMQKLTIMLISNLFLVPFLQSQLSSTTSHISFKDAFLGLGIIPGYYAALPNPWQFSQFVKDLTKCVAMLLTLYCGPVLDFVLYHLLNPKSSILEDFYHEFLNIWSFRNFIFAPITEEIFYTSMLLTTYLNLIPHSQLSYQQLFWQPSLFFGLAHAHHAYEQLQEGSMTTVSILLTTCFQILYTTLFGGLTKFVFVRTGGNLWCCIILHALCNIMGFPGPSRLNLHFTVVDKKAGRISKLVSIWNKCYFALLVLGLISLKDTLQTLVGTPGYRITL
CSC inhib: cancer stem cell viability inhibitors, primary screen, luminescence; cancer stem cell-like cells viability; inhibition, % at 7.5 µM; 300,000 compounds, 1.1% hits;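 active = mean at 75% or more and at least half the replicates too; inconclusive = mean and replicates disagree; tested in HMLE shEcad cells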;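 also: 0% = median of negative and 100% = median of positive control wells; the first replicate is given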
Env fusion inh: inhibitors of HIV-1 Env-driven cell-cell fusion, primary screen, HeLa-JRFL effector, CEM21 target cells, luciferase | inhibition, % at 12.3 µM | 360,000 compounds, 1.1% hits;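 active = mean replicate inhibition score of at least 50 and every replicate individually at or above 50; inconclusive = only one of the two criteria met; inactive = mean below 50 and not all replicates reaching 50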;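 also: 0% = plate neutral controls and 100% = maraviroc near 300 nM; one replicate is shown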
MT1-MMP act inh RFP: also measured in MT1-MMP act inh; calls as there; RFP signal change, %; measured here: RFP expression control read;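 0 = vehicle wells; hits needed this value within 50% of zero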
Starred values were filed as active, the others as inactive; i = inactive; ? = inconclusive; nt = no result given. The order is random; 3% or so of the library scored in one or more.

Order of values: PABP polyA inh, Yeast UUG start, MT1-MMP act inh, MT1-MMP act inh RFP, eIF4H inh, Rce1 inh, CSC inhib, Env fusion inh
C/C(=N/OC(=O)c1ccc(F)cc1)c1ccc(C)cc1
  -11, -9, -1, -5, -12, i, -9, nt
COc1ccc(-n2nnnc2SCC(=O)Nc2cccc(C)n2)cc1OC
  0, nt, 4, -3, 0, i, -11, nt
COc1ccccc1Nc1c2c(nc3ccc(N)cc13)CCCC2
  -1, -17, 6, 4, -4, i, 15, 11
CCN(CC)C(=S)NC(=O)c1ccc(OC)c(Br)c1
  4, -31, 13, 9, 4, i, nt, -10
Oc1ccc(C2=NN(c3ccccc3)C(c3ccc(F)cc3)C2)cc1 (centres undefined)
  -2, -13, 4, -5, -4, i, ?, 22
CN(C)CCCNC(=S)N(CCN(C)C)Cc1cc2cc3c(cc2[nH]c1=O)OCCO3
  26, 0, -6, 0, -2, i, 9, -5
COCc1nnc(NC(=O)c2ccc(S(=O)(=O)N3CCCCCC3)cc2)o1
  -8, -24, -3, 2, -1, i, 19, nt
O=C(/C=C/c1ccc(Cl)cc1)NC(=S)Nc1ccc(NC(=O)c2ccco2)cc1
  -6, nt, -13, -7, 5, i, 20, 0
Cn1cc(S(=O)(=O)Oc2ccccc2)c(=O)n(C)c1=O
  -6, nt, nt, nt, 3, i, -4, 26
Cc1ccc(Cl)cc1N1CCN(C(c2cccnc2)c2nnnn2C2CCCCC2)CC1 (centres undefined)
  -10, -14, -23, -15, -5, nt, 14, nt
O=C(/C=C/c1ccccc1)N1CCC[C@H]1CO
  2, -17, -2, 2, 1, i, -7, -3
Cc1ccc(F)c(S(=O)(=O)NC(=O)C2(C)CCN2C(=O)Cc2cccs2)c1 (centres undefined)
  nt, 7, -1, 4, nt, nt, nt, 7
COc1ccc(C(=O)NC2CC3CCCC(C2)N3Cc2ccccc2)cc1OC (centres undefined)
  -9, 4, 3, 4, 4, i, 9, 17
Cc1nn(CC(=O)NC(C)CCc2ccccc2)c(=O)c2nn(-c3ccccc3)c(C)c12 (centres undefined)
  -3, 0, 4, -17, -43, i, -6, -2
O=C(CN1C(=O)NC(Cc2ccccc2)C1=O)NC(=O)NC1CCCCC1 (centres undefined)
  8, -22, -2, -2, -10, i, nt, -27
Cc1ccc(S(=O)(=O)Cn2nnnc2C(C(C)C)N2CCc3ccccc3C2)cc1 (centres undefined)
  18, -4, -8, -4, -5, i, -12, nt
CCOC(=O)C1=C(C)Nc2nc3ccccc3n2C1c1ccncc1 (centres undefined)
  -2, -5, 1, 1, -8, i, -2, 17
COc1cccc(NC(=O)[C@@H](NC(=O)N2CCn3c2nc2ccccc23)C(C)C)c1
  -6, nt, 4, 1, -5, i, -1, 1
O=C(O)c1cc(N/N=C/c2c[nH]c3ccccc23)ccc1Cl
  18, 6, -3, 7, 4, nt, -2, -18
O=C(Nc1ccc(Cl)cc1)N(Cc1nnc2n1CCCCC2)c1ccccc1
  -8, -18, 0, 2, 2, i, -1, nt
Cc1cc(C(=O)COC(=O)c2ccccc2O)c(C)n1CC1CCCO1 (centres undefined)
  nt, -94, -7, -20, nt, nt, nt, ?
COc1cccc(Cn2cnc3c(sc4nc(C)cc(C)c43)c2=O)c1
  3, -11, 1, 7, 2, i, 32, -4
COc1cc(OC)cc(C(=O)N2CCN(C(=O)c3cccs3)CC2)c1
  -2, -5, -1, -3, 7, i, 6, 8
CC(=O)Nc1ccc(-c2cc(C(=O)O)c3cc4ccccc4cc3n2)cc1
  nt, -6, -5, 1, nt, nt, nt, -10
CC(C)Oc1ccc(C(=O)Nc2ccc(C(F)(F)F)n(C)c2=O)cc1
  0, 11, 0, 5, -3, i, -3, -12
O=C(NCc1ccc2c(c1)OCO2)c1cccc(N2CCCC2=O)c1
  10, -10, 1, 2, 0, i, -9, 14
COC(=O)CCC(=O)N(CCN(Cc1ccccc1)C(=O)CCC(=O)OC)Cc1ccccc1
  nt, nt, 3, 5, nt, i, -18, -24
O=C(Nc1ccc(S(=O)(=O)N2CCCC2)cc1)c1c(F)cccc1F
  1, -6, 5, 3, -4, i, 11, 24
COc1ccc(-c2noc(C3CCCN(C(=O)c4ccccc4OC)C3)n2)cc1OC (centres undefined)
  -1, nt, 0, -1, -1, i, 3, nt
COc1ccc(C2CC3(CC(C)(C)NC(SC)=N3)Oc3cc(O)cc(C)c32)cc1 (centres undefined)
  2, nt, -10, -8, -5, i, -3, -29

Reprinted at random: two records from the list
Order of values: PABP polyA inh, Yeast UUG start, MT1-MMP act inh, MT1-MMP act inh RFP, eIF4H inh, Rce1 inh, CSC inhib, Env fusion inh
COc1ccc(C2CC3(CC(C)(C)NC(SC)=N3)Oc3cc(O)cc(C)c32)cc1 (centres undefined)
  2, nt, -10, -8, -5, i, -3, -29
COc1ccc(-c2noc(C3CCCN(C(=O)c4ccccc4OC)C3)n2)cc1OC (centres undefined)
  -1, nt, 0, -1, -1, i, 3, nt

(list continues)
Order of values: PABP polyA inh, Yeast UUG start, MT1-MMP act inh, MT1-MMP act inh RFP, eIF4H inh, Rce1 inh, CSC inhib, Env fusion inh
C=CCn1c(SCc2ccc(C(=O)NCCO)cc2)nc2sc(C)c(C)c2c1=O
  -5, -12, -2, -1, -8, i, nt, 20
CCN(CCNC(=O)Cn1cc2c(n1)CCCC2)c1ccccc1
  -8, -7, 0, -1, 6, i, -6, 9
Cc1cc(C)c(C#N)c(N2CCN(S(=O)(=O)Cc3ccccc3)CC2)n1
  -6, -11, 5, -4, -4, i, 1, 9
COc1ccc(OC)c(-c2nnc3n2N=C(c2ccc(OC)c(OC4CCCC4)c2)CS3)c1
  nt, 17, 16, 0, nt, nt, 66, -54
CCN1C(=O)CC(N2CCC(Cc3ccccc3)CC2)C1=O (centres undefined)
  nt, -13, 3, -1, nt, i, 1, -63
COc1cccc(CC(=O)NCC2(N3CCCCC3)CCCCC2)c1
  -2, nt, 3, 8, -6, i, -3, -1
CCOC(=O)C1=NNC(C(=O)c2ccc(C)cc2)C1c1ccc(OC)cc1 (centres undefined)
  -13, nt, -1, 1, -2, i, 0, -59
CNC[C@H](CC1CCCCC1)NC[C@H](CO)NCCc1cccc(C(F)(F)F)c1
  -9, -8, 4, 0, 0, i, 132*, 4
CC(=O)OC(COC1C[C@@H]2CC[C@@]1(C)C2(C)C)C[N+]1(C)CCCCC1 (some centres undefined)
  37, nt, 3, 0, -5, i, 12, -14
Cc1ccc2cc(C(c3nnnn3CC3CCCO3)N3CCc4ccccc4C3)c(=O)[nH]c2c1 (centres undefined)
  48, 8, -7, 2, 8, i, 6, -93
Cn1ccc(O)c(C#N)c1=O
  5, -7, 1, 2, -8, i, 1, nt
COC(=O)c1c(NC(=O)Cc2ccccc2)sc2c1CCN(C(C)C)C2
  2, -12, 0, 2, -5, i, -5, -32
CN(C)c1nc2c(c(=O)[nH]c(=O)n2C)n1Cc1ccc(F)cc1
  12, 7, 4, 6, -6, i, -10, 11
COC(=O)c1cc(NC(=O)Cn2nc(C)n3cccc3c2=O)cc(C(=O)OC)c1
  4, 1, -5, 1, -2, i, -4, -2
CCOc1ccc(CN2CCNC(=O)C2CC(=O)NCCc2nc(C)c3c(n2)CCC3)cc1 (centres undefined)
  15, -8, -7, -3, 14, i, nt, 8
CCOC(=O)C1(CCOc2ccccc2)CCN(CC(O)CO)CC1 (centres undefined)
  -4, -6, -1, 2, -7, i, -1, -4
Cc1ccc(S(=O)(=O)Nc2ccc(O)c3ccccc23)c(C)c1
  16, -21, 5, 6, -3, i, 31, 0
CC(C)(C)n1nnnc1C(c1ccncc1)N1CCN(c2ccc(O)cc2)CC1 (centres undefined)
  -5, -27, -3, -1, 3, i, 11, nt
COc1cc(OC)cc(C(=O)N[C@H](C(=O)NCCc2c[nH]c3ccccc23)C(C)C)c1
  3, -11, -33, -24, 5, i, nt, 78*
Cc1ccccc1OCC(=O)Nc1ccccc1N1CCOCC1
  1, 7, 2, -1, -13, i, 17, nt
CC(=O)c1cc(F)ccc1OCC(=O)Nc1ccc2c(c1)OCO2
  nt, -21, 2, 0, nt, nt, -16, nt
NC(=O)C1CC(=O)N(c2ccc(OCc3c(F)cccc3Cl)cc2)C1 (centres undefined)
  4, nt, 2, 6, -12, i, nt, 18
COc1cccc(/C=C2\SC(=S)N(CCC(=O)NC3C=CS(=O)(=O)C3)C2=O)c1 (centres undefined)
  -8, -16, -6, 2, -7, i, 9, -2
CC(C)C(C(=O)Nc1ccc(N2CCOCC2)cc1)N1C(=O)c2ccccc2C1=O (centres undefined)
  4, -9, 0, 4, 1, i, -42, -3
CC(=O)NCCC(=O)Nc1cc(S(=O)(=O)N2CCOCC2)ccc1Oc1ccccc1
  -10, 1, 0, 1, -7, i, -9, nt

16 entries already listed, sorted by molar mass, ascending:
Order of values: PABP polyA inh, Yeast UUG start, MT1-MMP act inh, MT1-MMP act inh RFP, eIF4H inh, Rce1 inh, CSC inhib, Env fusion inh
Cn1ccc(O)c(C#N)c1=O
  5, -7, 1, 2, -8, i, 1, nt
CN(C)c1nc2c(c(=O)[nH]c(=O)n2C)n1Cc1ccc(F)cc1
  12, 7, 4, 6, -6, i, -10, 11
Cc1ccccc1OCC(=O)Nc1ccccc1N1CCOCC1
  1, 7, 2, -1, -13, i, 17, nt
CCOC(=O)C1(CCOc2ccccc2)CCN(CC(O)CO)CC1 (centres undefined)
  -4, -6, -1, 2, -7, i, -1, -4
CC(=O)OC(COC1C[C@@H]2CC[C@@]1(C)C2(C)C)C[N+]1(C)CCCCC1 (some centres undefined)
  37, nt, 3, 0, -5, i, 12, -14
NC(=O)C1CC(=O)N(c2ccc(OCc3c(F)cccc3Cl)cc2)C1 (centres undefined)
  4, nt, 2, 6, -12, i, nt, 18
COC(=O)c1c(NC(=O)Cc2ccccc2)sc2c1CCN(C(C)C)C2
  2, -12, 0, 2, -5, i, -5, -32
CC(C)(C)n1nnnc1C(c1ccncc1)N1CCN(c2ccc(O)cc2)CC1 (centres undefined)
  -5, -27, -3, -1, 3, i, 11, nt
COC(=O)c1cc(NC(=O)Cn2nc(C)n3cccc3c2=O)cc(C(=O)OC)c1
  4, 1, -5, 1, -2, i, -4, -2
CC(C)C(C(=O)Nc1ccc(N2CCOCC2)cc1)N1C(=O)c2ccccc2C1=O (centres undefined)
  4, -9, 0, 4, 1, i, -42, -3
CNC[C@H](CC1CCCCC1)NC[C@H](CO)NCCc1cccc(C(F)(F)F)c1
  -9, -8, 4, 0, 0, i, 132*, 4
COc1cc(OC)cc(C(=O)N[C@H](C(=O)NCCc2c[nH]c3ccccc23)C(C)C)c1
  3, -11, -33, -24, 5, i, nt, 78*
COc1cccc(/C=C2\SC(=S)N(CCC(=O)NC3C=CS(=O)(=O)C3)C2=O)c1 (centres undefined)
  -8, -16, -6, 2, -7, i, 9, -2
CC(=O)NCCC(=O)Nc1cc(S(=O)(=O)N2CCOCC2)ccc1Oc1ccccc1
  -10, 1, 0, 1, -7, i, -9, nt
CCOc1ccc(CN2CCNC(=O)C2CC(=O)NCCc2nc(C)c3c(n2)CCC3)cc1 (centres undefined)
  15, -8, -7, -3, 14, i, nt, 8
Cc1ccc2cc(C(c3nnnn3CC3CCCO3)N3CCc4ccccc4C3)c(=O)[nH]c2c1 (centres undefined)
  48, 8, -7, 2, 8, i, 6, -93
